# Screening data: PubChem BioAssay, National Center for Advancing Translational Sciences (NCATS)
# Marburg entry inh – inhibitors of Marburg virus binding or cell entry | AID 540276 | 1.8% of 300,000 active | Marburg virus pseudotyped entry inhibition, cell reporter; control for the full effect not named in the record; about a third of the inactives were read at about 46 µM | Potency, µM (titrated, usually from 37.8 µM), for inactives: top-dose activity change, negative = inhibition, hits mostly inhibitors; active = well fitted inhibition curve with a large enough effect; inconclusive = small, poorly fitted or top-dose-only effect, or effect the other way; inactive = flat fitted curve, though single readings scatter; tested in HEK293 cells; about a fifth of its hits are not listed in these tables; note: % is set by controls: 0 for no effect and ±100 for the full control effect; luciferase read-out
# RE007 growth inh – less growth of the S. pombe RE007 Vpr strain; S. pombe RE007 Vpr strain, BacTiter-Glo ATP luminescence, 24 h; control for the full effect not named in the record; Potency, µM (series often up to 92.2 µM), without a hit: at the highest dose activity change, negative = less growth; 0.21% of 360,000 active; AID 651644; active = well fitted falling curve with a large enough effect; inconclusive = small, poorly fitted or top-dose-only effect; inactive = no such curve, though single readings can be large or run the other way;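 note: % is set by controls: 0 for no effect and ±100 for the full control effect; nearly all actives have a fitted effect of over 50% in size; the assay follows cell death caused by Vpr and the record does not say whether a fall means rescue or toxicity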
#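 Fission yeast strain RE007, carrying one chromosomally integrated HIV-1 vpr copy, was seeded at OD 0.01 in PMG+AL medium with 23 nL pinned compound. After 24 h at 30 °C and 99% humidity, viability was read by BacTiter-Glo luminescence.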
# SARS PLP yeast – inhibitors of SARS-CoV papain-like protease in yeast; S. cerevisiae expressing SARS-CoV PLpro, growth rescue; control for the full effect not named in the record; Potency, µM (series often up to 32.9 µM), without a hit: top-dose activity, positive = growth rescue; 0.19% of 330,000 active; note: 0% is about no effect; nearly all actives have a fitted effect of over 55% in size; growth read by luminescence after 48 h
# Lassa entry inh – Lassa virus entry inhibition; Lassa virus pseudotype entry inhibition, cell reporter; control for the full effect not named in the record; Potency, µM (titrated, usually from 37.9 µM), without a hit: at the top dose activity change, negative = inhibition, usual class: inhibitors; 1.2% of 300,000 active; active means well fitted inhibition curve with a large enough effect; inconclusive means small, poorly fitted or top-dose-only effect, or effect the other way; inactive means flat fitted curve, though single readings scatter; tested in HEK293 cells; note: % is set by controls: 0 for no effect and ±100 for the full control effect; nearly all actives have a fitted effect of over 50% in size; luciferase read-out
# Cruzain Triton – inhibitors of Trypanosoma cruzi cruzain with detergent. purified cruzain, Z-FR-AMC fluorescence, 0.01% Triton. Potency, µM, for the others: max response, negative = inhibition, most hits filed as inhibitors. 0.43% of 200,000 active. AID 1478; active = well fitted curve in the direction sought with a large enough effect; inconclusive = small, poorly fitted or top-dose-only effect, or another doubt; inactive = no such curve, though single readings can be large; an effect the other way counts as inactive or inconclusive;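 note: plate controls were neutral wells for no effect and buffer without enzyme for full effect; nearly all actives have a fitted effect of over 40% in size; top concentration of the series not given in the record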
# Target sequence (P25779 123-467 limits assumed): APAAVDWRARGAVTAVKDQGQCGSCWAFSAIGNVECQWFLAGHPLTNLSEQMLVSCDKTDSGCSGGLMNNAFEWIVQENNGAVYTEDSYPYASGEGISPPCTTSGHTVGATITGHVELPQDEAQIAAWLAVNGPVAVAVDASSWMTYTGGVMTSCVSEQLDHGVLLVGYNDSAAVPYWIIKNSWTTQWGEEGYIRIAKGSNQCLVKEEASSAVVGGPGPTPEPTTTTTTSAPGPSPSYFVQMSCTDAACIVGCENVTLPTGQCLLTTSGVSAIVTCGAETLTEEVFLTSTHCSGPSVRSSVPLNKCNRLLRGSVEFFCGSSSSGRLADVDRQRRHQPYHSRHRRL
#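 Z-FR-AMC hydrolysis (2 uM substrate) by cruzain (1.5 nM) monitored kinetically at ex 360/em 450 nm after 15 min room-temperature compound exposure; 0.01% Triton X-100, pH 5.5, 5 mM DTT.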
# StopGo reporter – lowers the luciferase signal of an FMDV 2A StopGo reporter | human cells with a luciferase reporter of 2A StopGo recoding; control for the full effect not named in the record | Potency, µM (highest dose often 57.9 µM), without a hit: at the top dose signal change, negative = less light | 1.2% of 410,000 active; active = well fitted falling curve with a large enough effect; inconclusive = small, poorly fitted or top-dose-only effect; inactive = no such curve, though single readings can be large or run the other way; tested in HEK293T cells; note: % is set by controls: 0 for no effect and ±100 for the full control effect; nearly all actives have a fitted effect of over 45% in size; luciferase light after 4 h
# Cruzain inh noDet – inhibitors of Trypanosoma cruzi cruzain without detergent | AID 1476 | P25779 | Potency, µM, without a hit: max response, negative = inhibition, most hits filed as inhibitors | purified cruzain, Z-FR-AMC fluorescence, no detergent | 2.3% of 200,000 active; active = well fitted curve in the direction sought with a large enough effect; inconclusive = small, poorly fitted or top-dose-only effect, or another doubt; inactive = no such curve, though single readings can be large; an effect the other way counts as inactive or inconclusive;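 note: plate controls were enzyme without inhibitor for no effect and buffer without enzyme for full effect; nearly all actives have a fitted effect of over 40% in size; top concentration of the series not given in the record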
#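 Purified cruzain at 1.5 nM, pre-incubated 15 min with compound at room temperature in 100 mM sodium acetate pH 5.5, 5 mM DTT, 0.00005% Triton X-100. Reaction started with 2 uM Z-FR-AMC; AMC fluorescence increase over 60 s gives rate.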
# NS1 inh – influenza NS1 inhibition; 0.4% of 270,000 active; Potency, µM (top dose mostly 46.1 µM), without a hit: top-dose activity, positive = more growth; S. cerevisiae slowed by influenza A NS1, growth recovery by OD600; note: actives are rising curves; nearly all actives have a fitted effect of over 50% in size
#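 A cell-based growth assay was used: compounds that relieve NS1-induced slow growth of budding yeast raise OD600. Assay medium was yeast nitrogen base with ammonium sulphate and -URA supplement, pH 6.0, with 2% galactose.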
# * = called active by the depositor; ? = inconclusive; nt = not tested or not shown; & = joins results of further samples; [ ] = dose if it differs, or a comment. Unless noted, calls come from the whole dose curve; as a rule, active means well fitted rising curve with a large enough effect; inconclusive means small, poorly fitted or top-dose-only effect; inactive means no such curve, though single readings can be large or run the other way. Potency is the fitted concentration of half-maximal effect.
compound	Marburg entry inh	RE007 growth inh	SARS PLP yeast	Lassa entry inh	Cruzain Triton	StopGo reporter	Cruzain inh noDet	NS1 inh
O=C(C[n+]1ccn(CCCNP2(=O)C=C(c3ccccc3)OC(c3ccccc3)=C2)c1)c1cccs1	-21%[46.1 µM]	-14%	-2%	20%[46.1 µM]	nt	8%	nt	nt
Cc1cc(C)nc(SCc2nc3nc(C)cc(C)n3c2Br)n1	-6%	8%	1%	7%	2.9%	nt	-2%	-10%
CS(=O)(=O)N1CCc2cc(C(=O)O)ccc21	12%	-1%	2%	1%	9.3%	-16%	-3%	27%
O=C(Nc1ccc2c(c1)OCO2)C1CCN(S(=O)(=O)c2cccs2)CC1	13%	12%	-4%	2%	-0.9%	26%	?	-14%
OCCNCCCCOc1ccc(F)cc1	0%	12%	-5%	28%	3.3%	6%	-5%	-2%
CC(C)(C)n1cc(C(=O)c2ccccc2OCCCF)cn1	?	6%	-1%	7%[46.1 µM]	nt	-17%	nt	7%
COc1ccccc1Oc1ccc(S(=O)(=O)N2CCCC2)cc1	13%	-5%	-8%	1%	-1.9%	-13%	-11%	-15%
COC(=O)c1sccc1NC(=O)Nc1ccccc1Cl	5%[46.1 µM]	-12%	-4%	-6%[46.1 µM]	nt	3%	nt	-27%
COc1cc(/C=N/NC(=O)c2ccc(CSc3nc4ccccc4[nH]3)cc2)ccc1O	-29%[46.1 µM]	3%	0%	-22%	nt	-29%	nt	nt
COc1ccc(C(=O)Cn2c(=O)oc3ccc(C)cc32)cc1	nt	7%	2%	nt	nt	14%	nt	4%
CS(=O)(=O)c1ccc(N2CCN(c3ccccn3)CC2)c([N+](=O)[O-])c1	-20%[46.1 µM]	4%	-7%	?	nt	29%	nt	13%
O=C(CSc1cn(Cc2cccc(F)c2)c2ccccc12)NCc1ccc(F)cc1	6%	17%	-2%	0%	-1.7%	-23%	1%	-13%
COc1ccc(S(=O)(=O)N2CCC3(CC2)OCCN3S(=O)(=O)c2cccs2)cc1OC	15%	-10%	-4%	-7%	nt	51%[activator]	nt	nt
C/C(=N\NC(=O)c1ccc(=O)[nH]n1)c1cccnc1	?	11%	24%	2%	-3.9%	-7%	-7%	14%
Cc1c(NCc2cc(Cl)cc(Cl)c2O)c(=O)n(-c2ccccc2)n1C	?	-8%	0%	8%	3.5%	-9%	0%	-6%
O=[N+]([O-])c1ccc(OC/C=C2\Oc3ccc([N+](=O)[O-])cc3C2N2CCOCC2)cc1 (stereo not drawn)	?	-10%	-7%	?	-9.5%	?	-2%	14%
COc1ccc(C(C(=O)NC2CCCC2)N2CCc3ccccc32)cc1 (stereo not drawn)	nt	-7%	3%	nt	3.4%	3%	-3%	6%
CCCCNS(=O)(=O)c1ccc2nc(SCC(N)=O)[nH]c2c1	nt	-8%	1%	nt	nt	1%	nt	1%
CCOCCCNC(=O)C1(O)c2cc(Br)ccc2NC(=O)N1c1cccc(OC)c1 (stereo not drawn)	-12%[46.1 µM]	5%	0%	-1%[46.1 µM]	nt	-4%	nt	9%
CSc1ccccc1C(=O)Nc1cc2c(cc1C(=O)O)OCCCO2	-21%[46.1 µM]	0%	1%	10%	nt	9%	nt	10%
COCCSc1nc(N)c(NC(=O)c2ccco2)c(=O)[nH]1	-4%	4%	-4%	6%	nt	-21%	nt	0%
Cn1c(O)c(C=NCc2cccs2)c(=O)n(C)c1=O	13%	-6%	0%	12%	0.1%	nt	-10%	-4%
CCOC(=O)c1cc(-c2ccccc2)nc2c(O)cccc12	-25%	14%	nt	?	nt	-19%	nt	nt
O=S(=O)(/N=C(/Nc1cccc2ccccc12)c1ccccc1)c1ccc(F)cc1	nt	5%	-7%	nt	nt	-14%	nt	-2%
CC(=O)Nc1ccc(NC(=O)C(C)OC(=O)CCCc2c[nH]c3ccccc23)cc1 (stereo not drawn)	?	-7%	5%	?	nt	-20%	nt	nt
Cn1ccsc1=NC(=O)c1ccc(S(C)(=O)=O)cc1	-2%[46.1 µM]	-1%	-1%	11%[46.1 µM]	nt	37%[activator]	nt	-6%
COc1ccc2c(c1)cc1c(=O)n(CC(=O)NC(C)CCc3ccccc3)nc(C)n12 (stereo not drawn)	3%[46.1 µM]	2%	-1%	nt	3.0%	?	16%	4%
O=[N+]([O-])c1cccc(/C=N/n2cnnc2)c1O	-2%	?	-39%	-2%	-5.0%	0%	-2%	-42%
CN(C)CCNc1nc(-c2ccco2)c2c(c1C#N)CC(C)(C)OC2	-18%&-18%&-18%	0%	1%	2%	-4.7%	-12%	4%	-4%
COc1ccccc1CN1CC(C(=O)NC2(c3ccccc3)CC2)CCC1=O (stereo not drawn)	?	-18%	0%	19%	nt	4%	nt	-4%

# The results go on.
canonical_smiles	Marburg entry inh	RE007 growth inh	SARS PLP yeast	Lassa entry inh	Cruzain Triton	StopGo reporter	Cruzain inh noDet	NS1 inh
N=c1sccn1CC(=O)NC(c1ccccc1)c1ccccc1	?	-2%	7%	nt	nt	-16%	nt	nt
CC(=O)Oc1cc(O)c2c(c1)OC(c1ccc(OC(C)=O)c(OC(C)=O)c1)C(OC(C)=O)C2=O (stereo not drawn)	2%[46.1 µM]	-6%	11%	?	nt	-11%	nt	6%
CCc1ccc(CCC(=O)Nc2ccc(C(C)=O)cc2)o1	7%[46.1 µM]	-3%	-4%	-3%	-5.6%	4%	-16%	1%
O=C(COc1ccccc1)N(Cc1cccc(F)c1)C1CCS(=O)(=O)C1 (stereo not drawn)	nt	17%	-2%	nt	nt	-18%	nt	10%
COc1ccc(CNC(=O)CCn2nc(C)c3c(C)n(-c4ccccc4)nc3c2=O)c(OC)c1	4%&4%[46.1 µM]	-5%	-13%	24%&-3%[46.1 µM]	1.2%	-6%&13%	-6%	-5%
CN(C)c1ccc(C(=O)NNC(=O)Nc2ccccc2)cc1	-5%[46.1 µM]	18%	0%	-3%	nt	1%	nt	nt
CCOc1ccccc1N(C(=O)CNC(=O)c1ccco1)C(C(=O)NC1CCCC1)c1cccnc1 (stereo not drawn)	1%	23%	4%	14%	0.9%	14%	-5%	1%
CC(=O)Nc1ccc(NC(=O)COC(=O)c2ccco2)cc1	12%	5%	-3%	2%	nt	3%	nt	-2%
CC(C)CC(=O)NC(NC(=S)Nc1cccc2cccnc12)C(Cl)(Cl)Cl (stereo not drawn)	14µM*	2%	-7%	?	-3.0%	-9%	11%	-4%
CCc1nnc(NC(=O)CSc2nccn2Cc2ccccc2)s1	nt	nt	nt	-18%[46.1 µM]	1.8%	-10%	-11%	nt
C=CCNC(=O)c1onc(CSc2cc(C)ccc2C)c1C(=O)O	nt	-23%	2%	nt	-0.9%	0%	-2%	17%
CC(=O)Nc1nc(-c2ccc3c(c2)CC(C)N3C(=O)C2CC2)c(C)s1 (stereo not drawn)	-16%[46.1 µM]	42%	1%	6%	nt	0%	nt	1%
C=CCOc1cccc(C2/C(=C(/O)c3ccc(C)cc3)C(=O)C(=O)N2CCN2CCOCC2)c1 (stereo not drawn)	3%[46.1 µM]	-14%	4%	-3%	-2.6%	-5%	?	1%
CCC(=O)N1CCc2cc(S(=O)(=O)NCCN3CCCCC3CC)ccc21 (stereo not drawn)	3%[46.1 µM]	-3%	nt	0%	14%	-12%	-5%	?
Cc1ccc(C(=O)NCC(=O)Nc2ccc3c(c2)CCC3)cc1	?	7%	10%	28%[46.1 µM]	nt	60%[activator]	nt	nt
COCCOC(=O)c1c(C)n(C)c2ccc(OC(=O)c3c(OC)cccc3OC)cc12	nt	0%	1%	nt	nt	0%	nt	-2%
C=CCn1c(CCNC(=O)c2ccccc2F)nnc1SCC(=O)Nc1nc(C)cs1	-23%&-23%	-1%	0%	-10%	4.9%	-22%	-10%	-14%
Cc1ccc(-c2ccnc(=S)[nH]2)cc1	0%	13%	?	21%	3.0%	nt	-11%	-7%
CN(Cc1ccccc1)c1ccc(S(=O)(=O)N2CCC(C(=O)O)CC2)cc1[N+](=O)[O-]	16%[46.1 µM]	-1%	2%	-5%[46.1 µM]	nt	-1%	nt	1%

# Filtered by structure, the entries above with two or more sulfur atoms
canonical_smiles	Marburg entry inh	RE007 growth inh	SARS PLP yeast	Lassa entry inh	Cruzain Triton	StopGo reporter	Cruzain inh noDet	NS1 inh
O=C(Nc1ccc2c(c1)OCO2)C1CCN(S(=O)(=O)c2cccs2)CC1	13%	12%	-4%	2%	-0.9%	26%	?	-14%
COc1ccc(S(=O)(=O)N2CCC3(CC2)OCCN3S(=O)(=O)c2cccs2)cc1OC	15%	-10%	-4%	-7%	nt	51%[activator]	nt	nt
CCCCNS(=O)(=O)c1ccc2nc(SCC(N)=O)[nH]c2c1	nt	-8%	1%	nt	nt	1%	nt	1%
Cn1ccsc1=NC(=O)c1ccc(S(C)(=O)=O)cc1	-2%[46.1 µM]	-1%	-1%	11%[46.1 µM]	nt	37%[activator]	nt	-6%
CCc1nnc(NC(=O)CSc2nccn2Cc2ccccc2)s1	nt	nt	nt	-18%[46.1 µM]	1.8%	-10%	-11%	nt
C=CCn1c(CCNC(=O)c2ccccc2F)nnc1SCC(=O)Nc1nc(C)cs1	-23%&-23%	-1%	0%	-10%	4.9%	-22%	-10%	-14%
